# High-throughput results from PubChem BioAssay.
# GLA inh pH 4.5: alpha-galactosidase A (human) inhibition, pH 4.5; 230,000 tested, under 10 active; purified enzyme, 4-MU-alpha-Gal fluorescence, pH 4.5; activity change, negative = inhibition, % at 105 µM; inconclusive = small, poorly fitted or top-dose-only inhibition, or a rising curve; inactive = flat fitted curve, though single readings scatter; no compound was filed as active;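 also: 0% = full activity with enzyme and -100% = basal without enzyme; dose as in the result columns while the protocol names 77 µM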
# Rango-impB inh: prevents formation of the Rango-importin beta complex. 340,000 tested, 0.031% active. Rango CFP/YFP FRET sensor + importin beta, 45 min. Potency, µM (doses to about 92.2 µM), without a hit: at the top dose inhibition of complex formation. Q14974; active = rising FRET ratio curve, often small or poorly fitted; inconclusive = mostly compound fluorescence or quenching in the first reads; inactive = flat curves in all reads;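 also: potency is read from the fitted curve at half-maximal effect; 0% = DMSO wells and 100% = buffer wells lacking importin beta; nearly all actives have a fitted effect of over 15% in size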
# Target sequence (Q14974 whole entry, looked up): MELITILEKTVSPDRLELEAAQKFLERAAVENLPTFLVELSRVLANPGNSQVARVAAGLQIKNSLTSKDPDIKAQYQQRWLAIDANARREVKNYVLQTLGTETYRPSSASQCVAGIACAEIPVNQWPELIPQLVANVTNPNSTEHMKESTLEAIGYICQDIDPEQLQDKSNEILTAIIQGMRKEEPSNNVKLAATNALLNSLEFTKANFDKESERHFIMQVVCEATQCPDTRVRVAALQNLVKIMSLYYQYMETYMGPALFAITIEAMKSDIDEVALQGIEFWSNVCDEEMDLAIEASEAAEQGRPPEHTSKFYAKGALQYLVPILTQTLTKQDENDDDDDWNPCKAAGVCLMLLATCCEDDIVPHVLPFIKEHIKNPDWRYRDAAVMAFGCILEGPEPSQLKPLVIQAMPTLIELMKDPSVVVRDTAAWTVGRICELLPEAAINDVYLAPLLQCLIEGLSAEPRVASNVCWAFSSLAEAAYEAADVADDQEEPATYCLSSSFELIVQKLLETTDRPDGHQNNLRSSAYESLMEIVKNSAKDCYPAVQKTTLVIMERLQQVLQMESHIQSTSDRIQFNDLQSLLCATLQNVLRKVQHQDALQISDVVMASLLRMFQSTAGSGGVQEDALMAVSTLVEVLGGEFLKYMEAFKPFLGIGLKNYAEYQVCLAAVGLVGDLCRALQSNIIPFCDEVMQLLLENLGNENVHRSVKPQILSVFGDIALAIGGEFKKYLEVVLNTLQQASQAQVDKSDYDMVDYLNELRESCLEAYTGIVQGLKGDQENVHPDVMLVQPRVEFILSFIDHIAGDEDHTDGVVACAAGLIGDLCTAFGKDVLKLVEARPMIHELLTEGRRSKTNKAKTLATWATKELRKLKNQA
#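 Inhibition scored from the CFP 486 nm/YFP 530 nm FRET ratio 45 min after adding 0.125 microM importin beta to 50 nM Rango biosensor preincubated 5 min with compound (room temperature, PBS with DTT, Tween-20, BSA). No-importin wells as positive control.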
# miR-21 FLuc: miR-21 reporter, rising signal. HeLa miR-21 FLuc reporter, luciferase, 48 h. Potency, µM (titrated, usually from 38.3 µM), without a hit: at the top dose reporter change, positive = more light. 340,000 tested, under 10 active; active = well fitted rising curve with a large enough effect; inconclusive = small, poorly fitted or top-dose-only effect; inactive = no such curve, though single readings can be large or run the other way;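 also: % of control where 0% means no effect; miR-21 action dims this reporter so a rising signal means less miR-21 action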
#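 Using DMEM plus 10% FBS, HeLa miR-21-FLuc cells are incubated with test compounds (final up to about 40uM) for 48 hours; firefly luciferase signal is then imaged following reagent-mediated lysis.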
# Rango release inh: prevents RanGTP from dissociating the Rango-importin beta complex; O95149+P62826; Biochemical FRET Rango-importin beta, RanGTP-induced dissociation; 340,000 tested, 0.071% active; AID 540253; Potency, µM (titrated, usually from 46.1 µM), inactives show at the highest dose activity change, negative = inhibition; active means falling FRET ratio curve, often poorly fitted, with flat reads before Ran was added; inconclusive means other falling curves, or compound fluorescence or quenching; inactive means flat or rising ratio curve;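 also: potency is read from the fitted curve at half-maximal effect; % of control where 0% means no effect; nearly all actives have a fitted effect of over 45% in size; -100% = wells without RanGTP and RCC1; the record marks most hits as doubtful in a second field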
#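 Quantitative HTS using a FRET biosensor: 0.1 uM Rango, 0.25 uM importin beta, 0.6 uM Ran, 2 mM GTP, 0.2 uM RCC1 final, PBS with DTT, Tween-20 and BSA. Post-read taken 45 min after Ran addition.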
# An asterisk follows results filed as active; ? = inconclusive; . = not tested or not shown; & = joins results of further samples; [ ] = another dose, or the depositor's remark.
no.	Structure	GLA inh pH 4.5	miR-21 FLuc	Rango release inh	Rango-impB inh
1	Cc1ccc(NC(=O)COC(=O)c2ccc[n+]([O-])c2)c(Br)c1	.	.	1%	-1.6%
2	COc1ccc(CNC2CCCCC2C)c(OC)c1 (stereo unspecified)	4	-2%	?	?
3	Cc1ccc(C)c(S(=O)(=O)Nc2cc3c4c(c2)CC(=O)N4CCC3)c1	.	.	8%	2.7%
4	CC1CCN(C(=O)CSc2nnc(Cn3c(=O)sc4ccccc43)n2C)CC1	-2	-2%	-1%	?
5	N#Cc1c(-c2cccc(F)c2)cc(-c2ccccc2)nc1Br	4	-1%	9%	-0.4%
6	Cc1ccc(C)c(OCCNc2ccc([N+](=O)[O-])cn2)c1	.	-1%	0%	-0.5%
7	COC(=O)c1ccc(OCC(O)CNC2CCCC2)cc1 (stereo unspecified)	.	-5%	-23%	6.2%
8	Cc1cc(NC(=O)c2cc(-c3cccc(Cl)c3)on2)no1	4	-6%	1%	-4.7%
9	Cc1ccc(S(=O)(=O)c2nc(NN(C)C)sc2Cl)cc1	-1	20%	0%	-1.7%
10	Cc1ccc(NS(=O)(=O)c2ccc(C(=O)NCCCN3CCOCC3)cc2)cc1	.	.	5%	0.5%
11	Cc1nn(C)c(N)c1[N+](=O)[O-]	3	-1%	-4%	1.3%
12	Cc1ccc(S(=O)(=O)CCC(=O)Nc2ccc(S(=O)(=O)N(C)C)cc2)cc1	-2	4%	.	.
13	O=C(N/N=C/CCc1ccccc1)c1ccccc1	-3	-31%	4%	1.0%
14	COc1ccc(CC(=O)NNC(=O)c2nn(Cc3ccccc3)c(=O)c3ccccc23)cc1OC	-9	4%	2%	-0.7%
15	O=C(Nc1ccc(Cl)cc1)c1cc(-c2cccs2)on1	.	1%	8%	-2.9%
16	CN1CCOc2cc(S(=O)(=O)NCc3ccc(S(N)(=O)=O)cc3)ccc21	.	3%	-7%	-1.4%
17	O=C1CCC2c3ccc4ccccc4c3CCN12 (stereo unspecified)	-18	-3%	-22%	?
18	Cc1noc(C)c1CSc1nnc(-c2ccncc2)n1-c1ccc(Cl)c(Cl)c1	-3	-4%	2%	-1.2%
19	CCc1ccc(NC(=O)CSc2nc3ccccc3c(=O)n2CCCC(=O)N2CCCC2)cc1	6	-1%	0%	1.3%
20	CCOC(=O)c1ccc(NC(=O)CSC2=NC(=O)C(CC)C(=O)N2)cc1 (stereo unspecified)	-7	-16%	-1%	-0.6%
21	NC(=O)c1ccc(N=Cc2c(O)ccc3ccccc23)cc1	.	.	-11%	?
22	O=C(OCC(=O)N1CCc2ccccc21)c1ccc([N+](=O)[O-])o1	.	.	9%	-0.6%
23	CCOc1cc(NC(=O)CC(C)C)c(OCC)cc1NC(=O)CCn1nnc2ccccc21	2	-3%	1%	-3.2%
24	CC(NC(=O)C1CCN(C(=O)Nc2ccccc2)CC1)c1ccc(Cl)cc1 (stereo unspecified)	.	.	9%	0.1%
25	CCCCn1c(N)c(N(CC(C)C)C(=O)CCNC(=O)c2ccccc2Cl)c(=O)[nH]c1=O	.	.	13%	-2.3%
26	OCCCNc1ncnc2[nH]ncc12	.	.	-5%	-0.4%
27	CC1Cc2ccccc2N1CC(=O)NC(=O)NC1CCCCC1 (stereo unspecified)	6	-6%	1%	-2.0%
28	CCOC(=O)c1cccnc1SCC(=O)Nc1ccc(C)cc1	6[21.1 µM]	-40%	10%	-1.1%
29	COc1cc(/C=N/NC(=O)c2ccncc2)ccc1OCc1cnc(Cl)s1	7	-19%	-12%	3.3%
30	O=C(OCC(=O)N1CCCCCC1)c1cnc(Cl)c(Cl)c1	.	.	8%	0.4%
31	CS(=O)(=O)c1ccc(C(=O)Nc2cccc(-c3nc4ccccc4[nH]3)c2)cc1	.	7%	18%	3.7%
32	O=c1cc(-c2ccsc2)oc2cc(-c3ccc4c(c3)OCO4)ccc12	.	.	8%	-4.4%
33	Cc1cc(C)cc(NC(=O)CN(C)CC(=O)N(CC(C)C)c2c(N)n(CC(C)C)c(=O)[nH]c2=O)c1	.	.	-7%	-0.8%
34	CCOc1ccccc1N1CC(C(=O)Nc2cccc(S(=O)(=O)N3CCCCC3)c2)CC1=O (stereo unspecified)	-8	12%	-18%	-6.4%
35	Cc1ccc(Nc2cc(=O)[nH]c(=O)[nH]2)c(C)c1	2	-4%	-7%	-3.1%
36	O=C(NCCCN1CCCCCC1)c1ccc2c(Cl)c3c(nc2c1)CCCC3	-7	-6%	-2%	-0.1%
37	O=C(NCCCn1ccnc1)/C(=C/c1ccccc1)NC(=O)c1ccccc1	5	-2%	-14%	-1.5%
38	CCOc1ccc(OCC)c(C2C(C#N)=C(N)N(c3cccnc3)C3=C2C(=O)CC(C)(C)C3)c1 (stereo unspecified)	0	-5%	-5%	?
39	CC(=O)Nc1cc2c(cc1Br)OCCO2	1	-1%	1%	-3.8%
40	Cc1ncc([N+](=O)[O-])n1CCOC(=O)NC(NCc1ccccc1)C(Cl)(Cl)Cl (stereo unspecified)	0	1%	0%	-3.1%

# 2 of these compounds in another layout:
(29) COc1cc(/C=N/NC(=O)c2ccncc2)ccc1OCc1cnc(Cl)s1
- GLA inh pH 4.5 = 7
- miR-21 FLuc = -19%
- Rango release inh = -12%
- Rango-impB inh = 3.3%
(12) Cc1ccc(S(=O)(=O)CCC(=O)Nc2ccc(S(=O)(=O)N(C)C)cc2)cc1
- GLA inh pH 4.5 = -2
- miR-21 FLuc = 4%
- Rango release inh = .
- Rango-impB inh = .

# The results go on.
no.	Structure	GLA inh pH 4.5	miR-21 FLuc	Rango release inh	Rango-impB inh
41	COC(=O)c1cc(N2CCNCC2)nc2ccccc12	2	-12%	?	?
42	CC(C)C(=O)N1CCN(c2ccc(NC(=O)COc3ccccc3[N+](=O)[O-])cc2)CC1	7	18%	1%	1.4%
43	CN(C)C(=O)N1CCC(C(=O)NCc2ccc(F)cc2)CC1	0	-4%	10%	-1.1%
44	c1cncc(-c2nc(NCC3COc4ccccc4O3)c3ccccc3n2)c1 (stereo unspecified)	-5	?	-6%	5.7%
45	CCOc1ccccc1N1CCN(C(=S)Nc2ccc(S(=O)(=O)Nc3ncccn3)cc2)CC1	.	-9%	-3%	17%
46	CCC(=O)N1CCN(c2ccc(Cl)cc2NC(=O)c2ccc3c(c2)OCCO3)CC1	10	8%	13%	0.1%
47	CC(=O)c1cccc(NC(=O)c2cc(C(C)C)on2)c1	-6	-54%	3%	3.2%
48	O=C(NC1CC1)c1cccc(Br)c1	-6	-1%	-1%	0.0%
49	Cn1c(SCC(=O)Nc2ccc(N3CCOCC3)cc2)nnc1-c1ccccc1F	.	0%	3%	-0.3%
50	CCCCC(=O)NNC(=S)NCc1ccccc1	4	-6%	22%	-0.1%
51	CCOC(=O)/C=C/C(=O)OCC(=O)N1CCN(C(=O)c2ccco2)CC1	.	2%	0%	-1.8%
52	COc1ccc(C(=O)Nc2ccccc2C(=O)N(Cc2ccco2)C(C(N)=O)C(C)C)cc1 (stereo unspecified)	8	-3%	4%	-5.8%
53	CCOc1ccccc1Oc1c(C)oc2c(CN3CCN(C)CC3)c(O)ccc2c1=O	-4	-2%	0%	-1.7%
54	CCOc1cc(C(=S)N2CCOCC2)ccc1OC(=O)c1cccc(C)c1	.	14%	-13%	-4.6%
55	COc1cccc(NC(=O)Nc2nc(-c3ccc(OC)c(OC)c3)cs2)c1	.	?	15%	0.3%
56	O=S(=O)(Nc1ncccn1)c1ccc(NC(=S)NCCc2ccc(Cl)cc2)cc1	-2	-5%	9%	-4.5%
57	CCCCC(NC(C)=O)c1nc2ccccc2n1CCC (stereo unspecified)	-9	-9%	-22%	-0.8%
58	COc1ccc(OC)c(NC(=O)Nc2cccc3ccccc23)c1	0	-2%	0%	3.8%
59	CCC1CN(C(=O)N2CCC(C(=O)NCc3cccc(OC)c3OC)CC2)c2cc(C)ccc2O1 (stereo unspecified)	.	?	-1%	5.8%
60	COc1ccc(S(=O)(=O)Nc2cccc3c2O[C@H](CN(C)Cc2ccc(-c4ccccc4)cc2)[C@@H](C)CN([C@H](C)CO)C3=O)cc1	.	.	12%	?
61	CC(C)(O)c1nnn(-c2ccccc2)c1C(F)(F)F	2	0%	31%	1.0%
62	O=S(=O)(Nc1cccc(-n2cnnn2)c1)c1cnc(Cl)c(Cl)c1	.	-2%	-1%	0.2%
63	COc1ccc(N=c2oc3ccc(OC)cc3cc2-c2nc3ccccc3[nH]2)cc1	8	-46%	-17%	?
64	Cc1onc(-c2ccccc2)c1C(=O)N/N=C/c1ccccc1OC(C)C	.	-1%	12%	-2.7%
65	Cc1cc(C)nc(NC(=O)c2c(-c3c(Cl)cccc3Cl)noc2C)n1	2	-6%	-7%	-0.7%
66	Cc1ccc(OCc2nnc(N)s2)cc1	4	-39%	-3%	-0.2%
67	O=[N+]([O-])c1ccccc1-c1ccc(C(=S)N2CCCC2)o1	2	-55%	?	?
68	CSc1nc(Cl)cc(Nc2ccccc2N)n1	9	-5%	1%	-0.1%
69	N#CNC(=Nc1ccccc1F)SCc1ccc(C(=O)O)cc1	2	-7%	0%	0.2%
70	O=S(=O)(Cc1ccc(Cl)cc1)N1CCCC1	-4	-5%	-11%	4.1%
71	COc1cc2cc(C(N)=O)c(N)nc2cc1OC	?	-1%	?	?
72	O=C(Nc1ccc(S(=O)(=O)NC2=NCCCCC2)cc1)c1cc(F)c(F)cc1Cl	.	.	34%	4.3%
73	O=C(COc1ccc(S(=O)(=O)N2CCOCC2)cc1)Nc1ccc(Br)cc1	.	.	-3%	0.4%
74	CC(=O)Nc1ccc(NC(=O)COC(=O)c2cnccn2)cc1	11	6%	-1%	3.6%
75	Cc1ccc(NS(=O)(=O)c2cccc(C(=O)NCC(c3ccco3)N3CCCCC3)c2)cc1 (stereo unspecified)	.	7%	2%	?
76	O=C(CCC(=O)Nc1ccccc1Cl)NNC(=O)NC1CCCCC1	.	-9%	6%	-0.8%
77	Cc1cccc(C2c3[nH]c4ccccc4c3CCN2Cc2cccn2-c2ncccn2)c1 (stereo unspecified)	-11	9%	-3%	?
78	Cc1nc(NCc2ccco2)c2oc3ccccc3c2n1	-20	11%	-9%	-2.0%
79	COc1ccc(-c2ccc(F)cc2)cc1[C@H]1[C@H]2C=CC[C@@H](C)[C@@H]2C(=O)N1Cc1ccccc1	-11	16%	2%	-3.2%
80	CCc1noc(C)c1C(=O)N1CCCC(N2CCN(c3ccc(F)cc3)CC2)C1 (stereo unspecified)	.	.	2%	0.3%
81	S=c1[nH]nc(-c2ccccn2)n1/N=C/c1ccc(-c2ccccc2Cl)o1	-2	-1%	14%	0.2%
82	CSCc1ccc(C(=O)Nc2ccc(C(N)=O)cc2)cc1	4	-65%	-6%	-0.9%
83	CCCCn1c2ccccc2c2nnc(SCC(=O)NC3=NN=C(c4ccccc4)CS3)nc21	-8	28%	.	.
84	O=C(CSc1ccc2nnc(-c3ccccn3)n2n1)Nc1ccccc1	.	0%	1%	1.1%
85	COc1ccccc1NS(=O)(=O)c1ccc(NC(C)=O)cc1	-1	0%	0%	1.9%
86	C=CCn1c(SCC(=O)NCc2ccc3c(c2)OCO3)nnc1C1COc2ccccc2O1 (stereo unspecified)	-1	-8%	8%	-0.1%
87	CCOC(=O)CSc1nnc(N)s1	0	-2%	-3%	-0.8%
88	Cc1cc(C)c2[nH]c(C(=O)Nc3ccc4c(c3)OCO4)cc2c1	-13	-21%	-10%	-3.2%
89	Cc1nnc(SCC(=O)Nc2ccc3c(c2)OCO3)o1	2	1%	-1%	0.4%
90	Cc1ccccc1NC(=O)C1CCN(S(=O)(=O)c2cccc3nonc23)CC1	.	2%&-6%	13%	4.3%
91	COc1ccccc1N1CCN(CCOc2c(OC)cccc2OC)CC1	-3	5%	-14%	0.0%
92	Cc1ccc(C(=O)N/C(=C\c2cccs2)C(=O)NCC2CCCO2)cc1C (stereo unspecified)	-3	-3%	-12%	-5.4%
93	O=C1CCC(=O)N1OCCCCOc1ccccc1	1	-2%	?	0.0%
94	COc1cccc(NC(=O)CN(C)CC(=O)NCc2ccc(F)cc2)c1	.	.	1%	0.0%
95	CC(C)Nc1nnc(SCC(=O)/C=C2\N(C)c3ccccc3C2(C)C)s1	8	11%	-18%	?

# Look-ups from above.
# Entry of no. 13 under Rango-impB inh: 1.0%
# Entry of no. 41 under miR-21 FLuc: -12%

# Some of the compounds tested. The share of hits here may be higher or lower than overall.
